# NPR1 antag: Natriuretic polypeptide receptor (hNpr1) antagonism - Primary qHTS; HEK293 hNpr1 GloSensor cGMP, ANP-stimulated luminescence; Potency, µM (series often up to 46.3 µM), for inactives: at the highest dose activity change, negative = inhibition, hits mostly inhibitors; 76,000 compounds, 1.6% hits; active = well fitted inhibition curve with a large enough effect; inconclusive = small, poorly fitted or top-dose-only effect; inactive = no such curve, though single readings can be large or run the other way;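 also: nearly all actives have a fitted effect of over 60% in size; nearly all hits also lower the signal before the agonist is added; a reference antagonist and vehicle were the controls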
# Target sequence (P16066 whole entry, looked up): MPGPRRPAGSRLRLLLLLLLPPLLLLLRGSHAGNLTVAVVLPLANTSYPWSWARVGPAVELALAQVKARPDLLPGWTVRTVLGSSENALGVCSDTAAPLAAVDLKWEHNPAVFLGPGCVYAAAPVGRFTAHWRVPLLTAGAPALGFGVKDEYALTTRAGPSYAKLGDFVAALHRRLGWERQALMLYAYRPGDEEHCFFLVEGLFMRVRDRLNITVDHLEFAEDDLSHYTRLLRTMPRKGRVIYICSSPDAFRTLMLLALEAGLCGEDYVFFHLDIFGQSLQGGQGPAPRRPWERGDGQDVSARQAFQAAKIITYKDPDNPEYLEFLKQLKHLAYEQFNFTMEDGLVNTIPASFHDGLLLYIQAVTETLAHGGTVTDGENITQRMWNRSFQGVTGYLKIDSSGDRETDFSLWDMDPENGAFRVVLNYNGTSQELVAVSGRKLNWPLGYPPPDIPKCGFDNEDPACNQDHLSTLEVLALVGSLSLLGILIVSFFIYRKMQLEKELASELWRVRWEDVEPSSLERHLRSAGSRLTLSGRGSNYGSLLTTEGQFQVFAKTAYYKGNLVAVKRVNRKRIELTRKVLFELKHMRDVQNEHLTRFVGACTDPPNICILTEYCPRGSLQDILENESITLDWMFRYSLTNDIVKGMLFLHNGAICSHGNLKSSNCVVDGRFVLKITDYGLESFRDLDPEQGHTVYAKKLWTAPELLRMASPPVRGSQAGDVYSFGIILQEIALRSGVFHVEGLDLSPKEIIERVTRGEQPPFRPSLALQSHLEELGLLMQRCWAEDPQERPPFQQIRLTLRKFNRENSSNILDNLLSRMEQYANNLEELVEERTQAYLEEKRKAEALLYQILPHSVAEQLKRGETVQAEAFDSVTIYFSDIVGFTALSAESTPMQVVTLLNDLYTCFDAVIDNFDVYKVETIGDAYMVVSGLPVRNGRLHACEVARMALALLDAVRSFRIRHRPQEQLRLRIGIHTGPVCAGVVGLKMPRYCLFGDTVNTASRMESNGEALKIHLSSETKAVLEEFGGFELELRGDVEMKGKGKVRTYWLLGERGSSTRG
#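 HEK293 cells stably expressing human Npr1 and cGMP GloSensor pGS-40F, loaded 2 h with 2% GloSensor reagent, given compound 30 min at room temperature. Luminescence read before and 20 min after 0.1 nM hNppA.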
# * hit, by the source's call; ? = inconclusive; [ ] = remark or other dose. % is scaled to controls: 0 for no effect and ±100 for the full control effect; potency is read from the fitted curve at half-maximal effect. The list is partial; count on the stated rates, not on these rows.
SMILES,NPR1 antag
COCCN1C(=O)[C@H]2CN(Cc3ccc(C)c(C)c3)C[C@H]2C1=O,3%
COc1cccc(NC(=O)c2ccc(-c3nnc4ccc(NC(=O)C5CCC5)cn34)cc2)c1,?
CCN1CCN(Cc2cc(C)cc(CN(C)Cc3ncc(C)[nH]3)c2C)CC1,-2%
CCCCN1CCN(C(=O)c2cn3ccnc(-c4ccccc4)c3n2)CC1,-15%
COc1ccc(C(=O)N2CCCC2c2nc(C3CCOCC3)no2)cn1 (stereo unspecified),10%
CCCNC(=O)N1C[C@@H](Oc2cccnc2)C[C@H]1C(=O)N1CCOCC1,3%
CN(C)C1CCN(c2nccc(C3(c4ccccc4Cl)CCNCC3)n2)C1 (stereo unspecified),5%
O=C(c1ccc(F)cc1Cl)N1CCN(C(=O)c2nnn3c2COC(c2ccccc2)C3)CC1 (stereo unspecified),-17%
O=C(N1CCC2(CC1)CC(Cc1nc(-c3cccnc3)no1)CCO2)C1(c2ccccc2)CC1 (stereo unspecified),1%
CCCc1noc(-c2ccn3c(CNC(=O)Cc4cccc(OC)c4)nnc3c2)n1,-4%
COc1ccc(-c2ccccc2NC(=O)C2CCCN(Cc3cnc(SC)nc3)C2)cc1 (stereo unspecified),-2%
COc1ccc(-c2ccc3c(c2)C(=O)N2CC[C@H](NC(=O)C4CCCC4)[C@H]2C(=O)N3)cc1,-3%[70.6 µM]
CCCN1CCN(CCNC(=O)c2cn3ccnc(-c4ccc(OC)cc4)c3n2)CC1,9%
CC(C)CC(=O)NCCC1CCN(C(=O)Nc2ccccc2)CC1,0%
O=C1c2cnc(-c3cccc(C(F)(F)F)c3)nc2OCCN1Cc1ccccc1,-4%[70.6 µM]
CN(C)C(=O)c1cccn2cncc12,18%[70.6 µM]
CCOc1ccc(NC(=O)N2CCc3cc(OC)c(OC)cc3C2CNC(=O)CC)cc1 (stereo unspecified),0%
CCN1C(=O)CCN(C(=O)c2ccc(C)nc2)CC12CCOCC2,2%
CCn1ccc(C(=O)N2CCC(Cn3c(C)cnc3C)CC2)n1,2%
COCC(=O)N1CCCC(c2nc(-c3cccnc3)no2)CCNC(=O)CC1 (stereo unspecified),3%
Cc1ncc2c(c1CNC(=O)c1ccccc1N1CCOCC1)CCNC2,3%
Cc1ncoc1C(=O)N1CCC2(CC1)CC(N(Cc1ccc(F)cc1)C1CC1)CCO2 (stereo unspecified),-24%
Cc1cc(CN2CCCCCCn3c(nnc3-c3ccc(F)cc3)CC2)n(C)n1,-13%
COc1ccccc1-c1ccnc(N[C@H]2CO[C@H]3[C@@H]2OC[C@@H]3NC(=O)c2ccc(C)cc2)n1,-1%
CC(C)CCNC(=O)C1C(c2cccc(NC(=O)c3ccco3)c2)OC(=O)N1Cc1ccccc1 (stereo unspecified),-1%
CCc1ccccc1NC(=O)[C@H]1CCC[C@H]1NC(=O)c1cnc(C)cn1,2%
CCN(CC)Cc1cnc2c(C(=O)NCc3nc(C)cs3)cnn2c1,4%
O[C@@H]1C[C@@H](c2nc(Cc3ccccc3)no2)N(Cc2ccc(F)cc2)C1,5%[70.6 µM]
CN1C(=O)CCC2(CNC(=O)c3cccs3)CCC=C12 (stereo unspecified),3%
O=C(C1COc2ccccc2O1)N1CCN(c2cc(-c3ccc(Cl)cc3)[nH]n2)CC1 (stereo unspecified),?
Cn1cc(-c2cnc(Nc3cncnc3)c3c2CCO3)cn1,1%[70.6 µM]
COc1c(N)ccnc1-c1cccc(CN2CCOCC2)c1,-1%
C[C@@H](NC(=O)c1cccn1C)c1onc(-c2ccccc2)c1C(=O)O,-1%[70.6 µM]
C#CCN(C)C(=O)C[C@@H]1c2nc(-c3cccnc3)sc2C[C@@H]2[C@](C)(CO)[C@H](O)CC[C@]21C,0%
COc1ccc(CNC(=O)C2=NO[C@@H]3CN(c4ccccn4)C[C@H]23)cc1OC,-10%[70.6 µM]
CN(C(=O)CC(c1cccc(O)c1)c1cccc(Cl)c1)C1CCOCC1 (stereo unspecified),-1%
Cc1ccc2c(c1)N1C(=O)OC[C@@H]1CCN(C(=O)c1ccccn1)C2,6%[70.6 µM]
O=C(NCCN1CCOCC1)C1CC(=O)N(c2n[nH]c3cc(Br)ccc23)C1 (stereo unspecified),1%
Cn1cc(CN[C@H]2[C@H](O)[C@H](O)C[C@@H]2c2ccccc2)c2ccccc21,1%[70.6 µM]
Cc1ccc(NC(=O)N2CC(C(=O)N(C)C)C3(CCOCC3)C2)cc1F (stereo unspecified),-9%
COCCC(=O)N1CC[C@H](c2nc3ccccc3o2)C1,5%[70.6 µM]
COc1cc(CN2C[C@@H]3C(=O)N(CCCN4CCCC4=O)C(=O)[C@@H]3C2)ccc1OC(C)C,2%
COC1CCC12CCN(C(=O)Cc1ccccc1)CC2 (stereo unspecified),-1%
COc1cc(-c2onc(C)c2C(=O)NCc2ccc(F)cc2F)cc(OC)c1OC,-13%
Clc1ccccc1C1(c2ccnc(NCCc3ccncc3)n2)CCNCC1,-1%
COc1ccc(-n2c(=O)c3c(n2Cc2ccccc2)CN(C(=O)C2CCCO2)CC3)cc1 (stereo unspecified),2%[70.6 µM]
CCOc1ccccc1NC(=O)CN1C=C(C(=O)OC)C(C)=NS1(=O)=O,5%
COc1ccc(C(=O)N2CCC3(CC2)NC(=O)N(c2ccccc2)N3)cc1OC,-3%
Cc1nc(CNc2ncc(S(C)(=O)=O)c(C3CCCNC3)n2)sc1C (stereo unspecified),-1%
Cc1ccc2nc3n(c2c1)[C@@H](CNC1CCOCC1)COC3,-4%[70.6 µM]
CC(c1cccs1)N(C)Cc1cccc(C(F)(F)F)c1 (stereo unspecified),0%[70.6 µM]
Cc1nn(-c2ccc(C(C)(C)C)cc2)c(C)c1[C@@H]1C=C[C@@H](NCc2ccco2)C1,-30%[70.6 µM]
CCC1CN(c2ccc(-c3nc(-c4ccc(OC)cc4)no3)cn2)CCN1C (stereo unspecified),-4%
COc1cccc(OCc2nc3c(n2Cc2ccccc2)C(=O)N(Cc2ccccc2C#N)CCN3)c1,-18%
COC(=O)[C@@H](C)NC(=O)[C@H]1CN(C(=O)c2cccnc2)CCN1C(C)=O,-1%[70.6 µM]
COc1cccc(CC(=O)NC2CCN(c3cc(-c4ccc(F)cc4)[nH]n3)C2)c1 (stereo unspecified),-13%
CCN1c2cc(C(=O)NCc3cccc(Cl)c3)ccc2C(=O)N2CCCCCC21 (stereo unspecified),-18%
COc1ccc(C2Cn3nnc(C(=O)N4CCN(C(=O)c5cc(C)ccc5C)CC4)c3CO2)cc1 (stereo unspecified),?
COc1ccc(CC(=O)N[C@@H]2COCC[C@H]2OCc2ccccn2)cc1,-4%
Cc1ccc(-c2nocc2CCC(=O)NCc2cccc(Br)c2)cc1,-13%
# Other results.
SMILES,NPR1 antag
CCNC(=O)O[C@@H]1CO[C@H]2[C@@H]1OC[C@@H]2NCc1ccccc1,-4%[70.6 µM]
O=C1[C@@H]2C[C@@H](CN2Cc2ccnc3ccccc23)Oc2ccccc2N1CC1CC1,?
NC(=O)C1CCN([C@H]2[C@@H]3OC[C@@H](O3)[C@@H](N)[C@@H]2O)CC1,-1%[70.6 µM]
NC(=O)CNC(=O)[C@@]1(O)C[C@@H](O)[C@H](O)[C@@H](NS(=O)(=O)c2cccc(C(F)(F)F)c2)C1,7%
CCOc1ccc(C(=O)N2CCC3(CCCNC3=O)C2)cc1Cl (stereo unspecified),-21%
O=C(NCCCN1CCCC1)c1cn2ccnc(-c3ccccc3)c2n1,-4%
O=C(CCC1CCN(S(=O)(=O)c2cccc(F)c2)CC1)NC1CC1,1%
Cc1cnc(CC2CCNC2)n1Cc1ccccc1 (stereo unspecified),2%
COc1ccc(OC)c(NC(=O)C2CN(S(=O)(=O)C3CC3)CC23CCCCC3)c1 (stereo unspecified),-11%
COC[C@@H]1CN(S(=O)(=O)c2cccc(F)c2)C[C@H]1c1ccccn1,-1%
Cc1cccc(C(=O)N2CCCC(Cc3ncc(C)n3Cc3ccccc3)C2)c1 (stereo unspecified),-4%
Cc1cccc(OCC(=O)c2ccc3c(c2)N(CC(=O)Nc2ccccc2)C(=O)CO3)c1,-7%
CN(C)c1ccc(CN2CCC23Cc2ccccc2NC3=O)cc1 (stereo unspecified),-8%[70.6 µM]
O=C(CCn1cncn1)N1CCc2ncnc(N3CC=CC3)c2CC1,0%
COc1ccc(CN2CC3(CCN(S(=O)(=O)c4ccccc4Cl)CC3)C2=O)cc1,-20%
O=C(CC1CCOCC1)N1CCC(Cc2ccccc2)CC1,3%
CC1=NS(=O)(=O)N(C)C=C1C(=O)OCc1nc(-c2ccc(C)cc2)no1,10µM*
O=C(Cn1nc2n(c1=O)CCCCC2)N1CCN(c2ccc(F)cc2)CC1,-1%
CCn1ccnc1CN1CCC(Oc2ccccc2OC)(C(=O)O)CC1,4%
COc1cc(OC)cc(-c2onc(C)c2C(=O)NC(C)c2ccccc2)c1 (stereo unspecified),-6%

# 10 entries out of the list, ordered by number of heavy atoms, rising:
SMILES,NPR1 antag
Cc1cnc(CC2CCNC2)n1Cc1ccccc1 (stereo unspecified),2%
CCNC(=O)O[C@@H]1CO[C@H]2[C@@H]1OC[C@@H]2NCc1ccccc1,-4%[70.6 µM]
CCOc1ccc(C(=O)N2CCC3(CCCNC3=O)C2)cc1Cl (stereo unspecified),-21%
O=C(CCC1CCN(S(=O)(=O)c2cccc(F)c2)CC1)NC1CC1,1%
O=C(CCn1cncn1)N1CCc2ncnc(N3CC=CC3)c2CC1,0%
CCn1ccnc1CN1CCC(Oc2ccccc2OC)(C(=O)O)CC1,4%
COc1cc(OC)cc(-c2onc(C)c2C(=O)NC(C)c2ccccc2)c1 (stereo unspecified),-6%
COc1ccc(OC)c(NC(=O)C2CN(S(=O)(=O)C3CC3)CC23CCCCC3)c1 (stereo unspecified),-11%
NC(=O)CNC(=O)[C@@]1(O)C[C@@H](O)[C@H](O)[C@@H](NS(=O)(=O)c2cccc(C(F)(F)F)c2)C1,7%
Cc1cccc(OCC(=O)c2ccc3c(c2)N(CC(=O)Nc2ccccc2)C(=O)CO3)c1,-7%

# Other compounds follow:
SMILES,NPR1 antag
Cc1noc(C)c1-c1cc2c(cc(C)n2C)c(-c2cccc(CO)c2)n1,-20%[70.6 µM]
Cn1cccc1C(=O)N1C[C@@H](CO)[C@H](c2ccccn2)C1,-6%
O=C(C1CC1)N1CC[C@H](c2nc3ccccc3o2)C1,2%[70.6 µM]
Cc1noc(C)c1S(=O)(=O)N1CCc2nc3cc(-c4ccccc4)[nH]n3c(=O)c2C1,1%
Cc1ccc(-c2nnc(C3CN(C(=O)Cc4cccc(C)c4)CC34CCOCC4)o2)cc1 (stereo unspecified),-12%
O=C(NCc1ccc(Cl)cc1)c1cccn2nccc12,-5%[70.6 µM]
Cc1cnc(CN2CC3(CCC2=O)CCN(C(=O)[C@H]2C[C@@H]4C=C[C@H]2C4)CC3)cn1,3%
O=C1CCN(C(=O)c2cc(C3CC3)[nH]n2)CCCCCCN1,1%
Cc1noc2c(-c3cccnc3N(C)C)cc(-c3ccccc3)nc12,-1%[70.6 µM]
CN1CCOc2c(C(=O)NCc3cccnc3)cc(-c3ccc(N4CCOCC4)cc3)cc21,6%
COCc1nc(-c2ccc(OC3CN(Cc4ccsc4)C3)cc2)no1,-1%
CS(=O)(=O)N1CCCC(C(=O)N2CCN(Cc3ccccc3)CC2)CCNC(=O)CC1 (stereo unspecified),-1%
CN(C)C[C@@H]1CN(C2CCOCC2)C[C@H]1NC(=O)c1nccc2ccccc12,-2%
COCCN(C)C[C@@H]1CN(C(=O)c2csc(C(C)C)n2)C[C@@H]1CO,6%
COc1cccc(CN2C(=O)OC3(CCN(Cc4cccc(C)c4)CC3)C2(C)c2cccnc2)c1 (stereo unspecified),-5%
COc1ccc(OC)c(S(=O)(=O)N[C@H]2CO[C@H]3[C@@H]2OC[C@H]3OC(=O)Nc2ccc(C(C)=O)cc2)c1,0%
COc1ccc(C(=O)NCC(=O)N2CCN(c3ccccn3)CC2)c(C)c1,-8%
CC1(C)C(=O)N(Cc2ccc(O)cc2)[C@H]2CN(CC3CCOC3)C[C@H]2[S+]1(=O)[O-] (stereo partly specified),0%[70.6 µM]
Cc1ccc(C(=O)N2CCc3sc(C(=O)NC(C)c4ccccc4)cc3C2)cc1 (stereo unspecified),-21%
O=C(CCC1CCN(Cc2ncc[nH]2)CC1)NC1CCN(Cc2ccccc2)C1 (stereo unspecified),1%
CC1=NS(=O)(=O)N(Cc2ccccc2)C=C1C(=O)OCc1nc(-c2ccccc2C)no1,-8%
c1cncc(C2=NOC3(CCN(Cc4cccc5ccccc45)CC3)C2)c1,?
CCn1c(C2CCN(S(=O)(=O)c3ccc(OC)cc3)CC2)nn(C)c1=O,1%
Cc1ccsc1CN1CC(Oc2cccc(C(=O)NCC3CC3)c2)C1,-4%
COCC(=O)N1c2ccccc2CC1c1noc(C(C)C)n1 (stereo unspecified),5%
Cn1c(Cn2cccn2)nnc1C1CC(NC(=O)c2ccc(F)cc2)C1 (stereo unspecified),-2%
COC(=O)CN1C(=O)[C@@H]2C[C@@H](O)CN2C2(CN(Cc3ccncc3)C2)C1=O,1%[70.6 µM]
CC(C)CCN1C(=O)CC[C@]2(C(=O)N(C)CCc3ccccn3)CCCC[C@@H]12,-12%
O=C(CCC[C@@H]1[C@H]2CCCN3CCC[C@@H](CN1C(=O)c1cc(F)ccc1F)[C@@H]23)N1CCOCC1,-1%
CCOC(=O)c1nccn1Cc1nc(-c2ccccc2OCC)oc1C,-22%
CCCOc1ccc(CNC(=O)C(C)C2CCOCC2)cc1 (stereo unspecified),0%

# Compound activity (PubChem)
